High-throughput results: PubChem BioAssay, Johns Hopkins Ion Channel Center
KCNQ2 block: KCNQ2 potassium channel inhibitors, primary screen, cell-based, CHO-K1, FluxOR thallium flux, B-score (AID 2156) | Potassium voltage-gated channel subfamily KQT member 2 (Rattus norvegicus), O88943 | 20 min; active compounds read low; only compounds with negative scores are shown here; some inactives read as strong as hits | B-score at 10 µM | 1.1% of 310,000 active;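 active = fluorescence ratio B-score at most minus 3 library SDs, with starting brightness B-score within 2 library SDs, cut at about -5.5 in these data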
Target sequence (O88943 whole entry, looked up): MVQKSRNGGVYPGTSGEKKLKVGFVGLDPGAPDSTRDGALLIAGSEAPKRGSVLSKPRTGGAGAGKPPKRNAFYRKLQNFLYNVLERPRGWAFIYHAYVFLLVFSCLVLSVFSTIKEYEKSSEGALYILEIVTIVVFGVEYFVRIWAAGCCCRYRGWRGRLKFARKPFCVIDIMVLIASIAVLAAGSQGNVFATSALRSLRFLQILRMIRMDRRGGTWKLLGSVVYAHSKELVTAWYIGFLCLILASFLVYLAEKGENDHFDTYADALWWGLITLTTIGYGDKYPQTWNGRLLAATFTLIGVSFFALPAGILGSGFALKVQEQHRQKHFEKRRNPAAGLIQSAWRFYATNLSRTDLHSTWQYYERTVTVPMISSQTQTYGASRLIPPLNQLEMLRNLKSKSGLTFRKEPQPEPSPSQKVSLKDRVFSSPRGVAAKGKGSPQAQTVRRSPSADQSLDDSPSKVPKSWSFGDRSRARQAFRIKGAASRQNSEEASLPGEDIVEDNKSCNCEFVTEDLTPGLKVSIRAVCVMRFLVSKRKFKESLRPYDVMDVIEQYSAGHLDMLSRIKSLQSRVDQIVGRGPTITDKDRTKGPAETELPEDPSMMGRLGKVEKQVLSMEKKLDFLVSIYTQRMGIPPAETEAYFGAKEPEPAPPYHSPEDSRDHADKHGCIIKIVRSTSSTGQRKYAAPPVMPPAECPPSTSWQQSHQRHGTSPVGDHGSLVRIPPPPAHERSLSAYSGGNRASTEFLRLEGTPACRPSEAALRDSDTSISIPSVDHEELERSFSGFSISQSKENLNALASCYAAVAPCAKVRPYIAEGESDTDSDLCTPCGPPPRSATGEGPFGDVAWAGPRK
KCNQ2 block baseline: recorded beside KCNQ2 block, whose call it bears; B-score; measured here: initial fluorescence intensity artifact check;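 brightness before thallium and not channel activity; 0 = typical well and far values either way flag optical interference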
The depositor's hits bear a star; i = inactive. These rows are one share of the data; count on the stated rates, not on these rows.

Results follow in this order: KCNQ2 block, KCNQ2 block baseline
CCOc1ccc(Cn2c(=O)sc3ccccc32)cc1OC
    i, -0.28
O=C(COC(=O)C12CC3CC(CC(C3)C1)C2)NCCc1ccccc1
    i, 0.56
COc1ccc(OC)c(NC(=O)CNC(=O)c2ccc([N+](=O)[O-])cc2)c1
    i, 0.55
O=C(NCCNC(=O)c1ccc(-c2ccc(Cl)c(Cl)c2)o1)c1cnccn1
    i, -0.03
CC(=O)c1c(O)c2ccccc2n(C(C)C)c1=O
    i, 1.64
NC(=O)C1CCN(C2CC(=O)NC2=O)CC1 (configuration not stated)
    i, 2.72
O=C1OCC2=C1C(c1ccccc1)CC(=O)N2c1ccccc1 (configuration not stated)
    i, -0.2
COC(=O)Nc1nc(-c2ccccc2)c(C(=O)c2ccccc2)s1
    i, 0.56
COc1cccc(/C=C2\Oc3cc(OCC(=O)N4CCCCC4)ccc3C2=O)c1OC
    i, -0.37
COc1ccccc1/C=C/C=N/NC(=O)c1ccccn1
    i, -2.22
CCn1c(SCc2cccc(C)c2)nnc1-c1ccccc1
    i, 6.73
CCOc1ncccc1C(=O)OCC(=O)c1cc(C)n(Cc2ccco2)c1C
    i, 0.43
N#Cc1c(-c2ccc3c(c2)OCO3)ccn2nc(-c3cccc(C(F)(F)F)c3)nc12
    i, 0.42
Cc1nn(-c2ccccc2)nc1C(N)=O
    i, 1.06
O=C(COC(=O)Cn1cnc2ccccc21)Nc1cccc2c1C(=O)c1ccccc1C2=O
    i, 0.97
CCOC(=O)CNC(=O)c1cc(-c2ccccn2)nc2c(C)c(Cl)ccc12
    i, 1.61
COc1ccc(CNC(=O)c2ccc(NC(=O)CC3SC(N4CCCCC4)=NC3=O)cc2)cc1 (configuration not stated)
    i, 0.39
Cc1ccnc(NC(=O)C2CCC(CNc3c(N4CCCC4)c(=O)c3=O)CC2)c1 (configuration not stated)
    i, 0.91
COc1ccc(N2CCN(C(=O)CCC(=O)N3CCOc4ccc(C)cc43)CC2)cc1
    i, 0.46
Cc1ccc(C(=O)NCC(=O)OCC(=O)Nc2cc(S(=O)(=O)N3CCOCC3)ccc2C)cc1
    i, 2.45

One compound at a time, as listed above.
`O=C(COC(=O)Cn1cnc2ccccc21)Nc1cccc2c1C(=O)c1ccccc1C2=O` in the list: KCNQ2 block: i; KCNQ2 block baseline: 0.97
`CCOC(=O)CNC(=O)c1cc(-c2ccccn2)nc2c(C)c(Cl)ccc12` in the list: KCNQ2 block: i; KCNQ2 block baseline: 1.61

(list continues)
Results follow in this order: KCNQ2 block, KCNQ2 block baseline
CC1CCN(c2c(NCC3CCC(C(=O)NCc4ccccc4Cl)CC3)c(=O)c2=O)CC1 (configuration not stated)
    i, 0.84
Cc1ccc(-n2[nH]c(C)c(C=Nc3ccc(S(=O)(=O)Nc4nccs4)cc3)c2=O)c(C)c1
    i, 0.01
C/C(N)=C(/C#N)C(=O)COC(=O)C(NS(=O)(=O)c1ccc(Cl)cc1)C(C)O (configuration not stated)
    i, 0.29
Nc1ccc(-c2ccc(C(=O)O)s2)cn1
    i, 0.06
COc1ccc(N2CC(NS(=O)(=O)c3ccc4ccccc4c3)CC2=O)cc1 (configuration not stated)
    i, -1.09
Cc1cc(C)c(S(=O)(=O)Nc2ccc(O)c(Sc3ncn[nH]3)c2)c(C)c1
    i, 0.54
CCn1c(SCC(=O)Nc2nc(C)cs2)nnc1C(C)NC(=O)c1ccccc1 (configuration not stated)
    i, -1.43
Cc1ccc(S(=O)(=O)NN2C(=O)c3ccccc3NC2(C)C)cc1
    i, 2.2
CC(=O)CSc1nnc(NC(=O)CCc2ccccc2)s1
    i, -0.26
Cc1ccc(N2CC(C(=O)N3CCCc4ccccc43)CC2=O)cc1 (configuration not stated)
    i, 1.23
COc1ccc(Cl)cc1S(=O)(=O)N1CCCC1
    i, 0.1
O=C(c1ccccc1)c1c[nH]c(C(=O)C(Cl)(Cl)Cl)c1
    i, 1.79
O=C(c1cccs1)N1C(=O)c2cccc3cccc1c23
    i, 1.36
CC(=O)NCCc1nc2ccccc2n1Cc1cccc(C)c1
    i, -0.85
Cc1ccc(NC(=S)NC(CO)C(O)c2ccc([N+](=O)[O-])cc2)cc1 (configuration not stated)
    i, 0.77
O=C(CCSc1nnc(-c2ccncc2)o1)Nc1ccc(F)cc1
    i, -2.37
Cc1cccc(C)c1NC(=O)CSc1nc(C)c(CC(=O)c2ccc(Br)cc2)c(C)c1C#N
    i, 0.3
Cc1onc(-c2ccccc2)c1-c1n[nH]c(=S)n1-c1ccccc1Cl
    i, -0.31
CN(C(=O)c1ccc(-c2nn(C)c(=O)c3ccccc23)cc1)C1CCCCC1
    i, 2.24
CC(=O)NC(N1CCCCC1)C(F)(F)C(F)(F)C(F)(F)C(F)F (configuration not stated)
    i, 0.05
COc1ccc(C2CC(C)=NN2C=O)cc1OC (configuration not stated)
    i, 1.54
Cc1ccnc(SC2CC(=O)N(c3ccc([N+](=O)[O-])cc3)C2=O)n1 (configuration not stated)
    i, 1.31
COc1ccc(CNC(=O)c2cccc(-c3ccc(C)c4ccccc34)n2)cc1
    i, -0.29
COc1ccc(C2C(C(C)=O)=C(O)C(=O)N2CCc2c[nH]c3ccccc23)cc1OC (configuration not stated)
    i, 0.83
Cc1[nH]n(-c2ccccc2)c(=O)c1C(C[N+](=O)[O-])c1ccc(F)cc1 (configuration not stated)
    i, -1.31
CCCCCCCC(=O)NC(Nc1ccc(S(N)(=O)=O)cc1)C(Cl)(Cl)Cl (configuration not stated)
    i, 0.04
CC1(C)Cc2cccc(OCC(=O)O)c2O1
    i, 0.01
COc1ccc(C(=O)Sc2ccc(Cl)cc2)cc1OC
    i, -1.12
CCOc1cccc(-c2nnc3sc(-c4cc(OC)c(OC)c(OC)c4)nn23)c1
    i, 1.06
COc1ccc(C)cc1S(=O)(=O)N1CCCC(C(=O)NC2CC2)C1 (configuration not stated)
    i, 0.27
O=C(COC(=O)C1(c2ccc(F)cc2)CCCC1)NCc1ccc2c(c1)OCO2
    i, 1.07
O=C(OCCN1CCOCC1)c1ccc2c(c1)OCCO2
    i, 1.17
CCOC(=O)c1cc2c(=O)n3ccccc3nc2n(Cc2ccco2)c1=NC(=O)c1ccccc1OC
    i, 3.14
CCN1C(=O)/C(=C2\SC(=S)N(c3c(C)n(C)n(-c4ccccc4)c3=O)C2=O)c2ccccc21
    i, -1.1
Cc1ccc(C2/C(=C(/O)c3ccc(Br)cc3)C(=O)C(=O)N2Cc2ccco2)o1 (configuration not stated)
    i, -0.4
Cc1cc(C(=O)OCC(=O)N2CCN(c3ccccc3)CC2)c2ccccc2n1
    i, 1.27
CC(=O)Nc1ccc(C(=O)CSc2nccc(=O)[nH]2)cc1
    i, 1.73
CN(Cc1ccc(F)cc1)C(=O)C(c1ccccc1)c1ccccc1
    i, -1.52
COc1ccccc1-c1nc2cc3ccccc3cc2nc1-c1ccccc1OC
    i, -3.27
CC1=Nc2cc(C(=O)NCCCOC(C)C)ccc2Sc2ccccc21
    i, 2.29
Cn1cc([N+](=O)[O-])c(C(=O)N2CCCCCC2)n1
    i, 0.15
O=C(c1ccc(NS(=O)(=O)c2cccc(C(F)(F)F)c2)cc1)N1CCCC1
    i, -0.78
CCn1c(SCC(=O)Nc2nnc(C)s2)nc2c(c1=O)SC(C)C2 (configuration not stated)
    i, 1.53
COC(=O)c1ccc(C(=O)OC)c(NC(=O)CN(C)Cc2ccccc2)c1
    i, 0.87
N#C/C(=C\c1coc2ccccc2c1=O)C(N)=S
    i, -0.94
CCn1c(SCC(=O)N/N=C(\C)c2ccncc2)nnc1-c1ccccc1
    i, -1.15
Cc1ccc(C(C)C)cc1OCCCCN1CCCC1
    i, 0.2
CC(Sc1nc2ccccc2s1)C(=O)N(C)Cc1ccccc1 (configuration not stated)
    i, -1.72
C/C=C/c1ccc(OCC(=O)Nc2ccc(OC)c(OC)c2)c(OC)c1
    i, -0.44
CC1(C)CC(=O)C(C=NCc2ccc3c(c2)OCO3)=C(O)C1
    i, 0.56

Later entries.
SMILES,KCNQ2 block,KCNQ2 block baseline
Cc1ccc(NC(=O)CN(C)S(=O)(=O)c2cnc[nH]2)c(C)c1,i,3.16
Cn1ccnc1C1CCCCN1Cc1nc(-c2ccc(Cl)cc2)no1 (configuration not stated),i,0.09
O=C(NCc1cccnc1)c1cc(S(=O)(=O)N2CCOCC2)c(Cl)cc1Cl,i,0.56
Cc1ccc(S(=O)(=O)N2CCCc3ccccc32)cc1C,i,0.46
N=c1n(Cc2ccccc2)c2ccccc2n1CC(O)COc1ccccc1 (configuration not stated),i,0.27
CC(C)C(c1nnnn1Cc1cccs1)N1CCN(c2ccccc2)CC1 (configuration not stated),i,-0.24
Cn1nc(C(=O)Nc2ccc(S(=O)(=O)N3CCCCC3)cc2)ccc1=O,i,-0.58
COc1cccc(NC(=O)CN(C)CC(=O)NC(C)c2ccccc2)c1 (configuration not stated),i,1.1
COc1ccccc1NC(CC(=O)c1ccccc1)C(=O)OCC(=O)c1ccc(Br)cc1 (configuration not stated),i,1.18
CSc1ccccc1NC(=O)CN1CCCCC1,i,-1.14

Three of the compounds above, field by field.
COc1cccc(NC(=O)CN(C)CC(=O)NC(C)c2ccccc2)c1 (configuration not stated)
- KCNQ2 block = i
- KCNQ2 block baseline = 1.1

COc1ccccc1NC(CC(=O)c1ccccc1)C(=O)OCC(=O)c1ccc(Br)cc1 (configuration not stated)
- KCNQ2 block = i
- KCNQ2 block baseline = 1.18

CSc1ccccc1NC(=O)CN1CCCCC1
- KCNQ2 block = i
- KCNQ2 block baseline = -1.14

Next section.
SMILES,KCNQ2 block,KCNQ2 block baseline
CC(Oc1cccc(Cl)c1)C(=O)Nc1ccc(N2CCOCC2)cc1N1CCOCC1 (configuration not stated),i,-0.43
O=C(CNC(=O)c1ccc(Br)cc1)NC1=NCCS1,i,1.51
O=C(O)/C=C\C(=O)Nc1ccc(OCc2ccccc2)cc1,i,0.01
CCN(CC(=O)NCc1ccc(F)cc1)CC(O)COCc1cccc(OC)c1 (configuration not stated),i,0.78
Cc1nc(CN2CCC(c3ccccc3)CC2)cc(=O)[nH]1,i,0.13
Cn1c(=O)n(/N=C/c2ccccc2)c2ccccc21,i,-0.03
COc1ccc(OCC(=O)N/N=C/c2ccc(N(C)C)cc2)cc1,i,2.38
COc1ccc(N2CCN(Cc3nc4c(c(=O)[nH]c(=O)n4C)n3CC(C)=O)CC2)cc1,i,-0.19
Cc1cccc(NS(=O)(=O)c2cc(C(=O)N3CCCCCC3)ccc2C)c1,i,1.44
COc1ccc(CN(CCC(c2ccccc2)c2ccc(OC(C)C)cc2)C(=O)CCl)cc1OC (configuration not stated),i,0.01
COc1cccc(CNC(=O)CN(c2ccc(C(C)C)cc2)S(=O)(=O)c2c(C)noc2C)c1,i,-0.76
O=C(O)c1c(NC(=O)c2cccc3ccccc23)sc2c1CCC2,i,-0.12
O=C(NCCCN1CCCC1=O)c1ccc2c(=O)n(-c3ccc(F)cc3)c(=S)[nH]c2c1,i,1.21
C=CCOC(=O)C1=C[C@@H](C2CCCCC2)C[C@@H](OCc2ccc(CO)cc2)O1,i,-0.52
NS(=O)(=O)c1cc(C(=O)N=Nc2c(O)[nH]c3ccccc23)ccc1Cl,i,1.05
CN1CCN(C(=O)CCc2nc(-c3ccc(Cl)cc3)no2)CC1,i,-1.53
CCOC(=O)C1=C(Cc2ccc(F)cc2)C(=O)c2ccccc2C1=O,i,0.31
CN1C(=O)[C@H]2[C@@H](C3CC3)N3C(=O)CN(Cc4ccc(-c5ccccc5)cc4)C(=O)[C@@]3(C)[C@H]2C1=O,i,0.01
CC(C)(C)C(=O)Nc1nnc(SCC(=O)NC2CCCC2)s1,i,-0.02
CC(NC(=O)C1CCC(CNC(=O)[C@@H]2Cc3ccccc3CN2)CC1)c1ccccc1 (some centres not stated),i,-0.25
O=C1/C(=C/C=C/c2ccccc2)Oc2c1ccc(O)c2CN1CCN(CCO)CC1,i,4.75
Cc1ccc(OCC(=O)Nc2ccc3c(c2)nc(CCN2CCOCC2)n3C)cc1,i,0.66
Nc1c(C(=O)NCc2ccc3c(c2)OCO3)nnn1-c1ccc(OC(F)(F)F)cc1,i,2.09
C/C(=N\NC(=S)NC1CCCCC1)c1ccc(C)o1,i,-0.39
COc1ccccc1N/C=C1/Sc2cc(Cl)ccc2NC1=O,i,-0.76
C/C(Cc1ccccc1)=N\NC(=O)CNC(=O)c1ccccc1Br,i,-0.88
Cc1c(C)c2cc3c(C)coc3cc2oc1=O,i,0.11
O=C(Nc1ccccc1Cl)C1(c2ccccc2)CC1(Cl)Cl (configuration not stated),i,0.28
CCCCCN1CC(O)=C(c2nc(-c3ccc(Cl)cc3)cs2)C1=N,i,-0.01
CC(C)c1ccc(/C=N/NC(=O)c2cccc(S(=O)(=O)N3CCOCC3)c2)cc1,i,1.52
CCOCCCNC(=O)c1c(-c2ccccc2)noc1C,i,0.68
O=C(CN1CCC(NC(=O)c2ccccc2F)CC1)Nc1ccc2c(c1)OCO2,i,1.15
COc1ccccc1N1CCN(C(=O)CCN2C(=O)c3cccc4cccc(c34)C2=O)CC1,i,0.79
Nn1c(SCC(=O)Nc2ccc3c(c2)OCO3)nnc1C1CC1,i,0.63

Among those listed so far, 3 have a CF3 group.
SMILES,KCNQ2 block,KCNQ2 block baseline
N#Cc1c(-c2ccc3c(c2)OCO3)ccn2nc(-c3cccc(C(F)(F)F)c3)nc12,i,0.42
O=C(c1ccc(NS(=O)(=O)c2cccc(C(F)(F)F)c2)cc1)N1CCCC1,i,-0.78
Nc1c(C(=O)NCc2ccc3c(c2)OCO3)nnn1-c1ccc(OC(F)(F)F)cc1,i,2.09

Individual results from above.
Cc1ccc(C2/C(=C(/O)c3ccc(Br)cc3)C(=O)C(=O)N2Cc2ccco2)o1 (configuration not stated) in KCNQ2 block baseline shows -0.4
C/C=C/c1ccc(OCC(=O)Nc2ccc(OC)c(OC)c2)c(OC)c1 in KCNQ2 block baseline shows -0.44
N#C/C(=C\c1coc2ccccc2c1=O)C(N)=S in KCNQ2 block baseline shows -0.94
